Screening data deposited in PubChem by National Center for Advancing Translational Sciences (NCATS).
Rango release inh = prevents RanGTP from dissociating the Rango-importin beta complex; AID 540253; Potency, µM (series often up to 46.1 µM), for inactives: top-dose activity change, negative = inhibition; 340,000 compounds, 0.071% hits; O95149+P62826; Biochemical FRET Rango-importin beta, RanGTP-induced dissociation; active means falling FRET ratio curve, often poorly fitted, with flat reads before Ran was added; inconclusive means other falling curves, or compound fluorescence or quenching; inactive means flat or rising ratio curve;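 also: potency is read from the fitted curve at half-maximal effect; % of control where 0% means no effect; nearly all actives have a fitted effect of over 45% in size; -100% = wells without RanGTP and RCC1; the record marks most hits as doubtful in a second field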
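Rango FRET biosensor (snurportin-1 IBB flanked by N-terminal EYFP and C-terminal CFP10) at 0.1 uM, with 0.25 uM importin beta in PBS, 1mM DTT, 0.02% Tween-20, 0.1% BSA. 0.6 uM Ran, 2mM GTP and 0.2 uM RCC1 were then added for 45 min at room temperature. Inhibition read as loss of FRET rise.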
GLA inh pH 4.5 = alpha-galactosidase A (human) inhibition, pH 4.5 | P06280 | purified enzyme, 4-MU-alpha-Gal fluorescence, pH 4.5 | activity change, negative = inhibition, % at 105 µM | 230,000 tested, under 10 active | AID 1467; inconclusive = small, poorly fitted or top-dose-only inhibition, or a rising curve; inactive = flat fitted curve, though single readings scatter; no compound was filed as active;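 also: 0% = full activity with enzyme and -100% = basal without enzyme; dose as in the result columns while the protocol names 77 µM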
Rango-impB inh = prevents formation of the Rango-importin beta complex; Rango CFP/YFP FRET sensor + importin beta, 45 min; Potency, µM (series often up to 92.2 µM), for the others: top-dose inhibition of complex formation; 340,000 compounds, 0.031% hits; AID 540263; active = rising FRET ratio curve, often small or poorly fitted; inconclusive = mostly compound fluorescence or quenching in the first reads; inactive = flat curves in all reads;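 also: potency is read from the fitted curve at half-maximal effect; 0% = DMSO wells and 100% = buffer wells lacking importin beta; nearly all actives have a fitted effect of over 15% in size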
Target sequence (Q14974 whole entry, looked up): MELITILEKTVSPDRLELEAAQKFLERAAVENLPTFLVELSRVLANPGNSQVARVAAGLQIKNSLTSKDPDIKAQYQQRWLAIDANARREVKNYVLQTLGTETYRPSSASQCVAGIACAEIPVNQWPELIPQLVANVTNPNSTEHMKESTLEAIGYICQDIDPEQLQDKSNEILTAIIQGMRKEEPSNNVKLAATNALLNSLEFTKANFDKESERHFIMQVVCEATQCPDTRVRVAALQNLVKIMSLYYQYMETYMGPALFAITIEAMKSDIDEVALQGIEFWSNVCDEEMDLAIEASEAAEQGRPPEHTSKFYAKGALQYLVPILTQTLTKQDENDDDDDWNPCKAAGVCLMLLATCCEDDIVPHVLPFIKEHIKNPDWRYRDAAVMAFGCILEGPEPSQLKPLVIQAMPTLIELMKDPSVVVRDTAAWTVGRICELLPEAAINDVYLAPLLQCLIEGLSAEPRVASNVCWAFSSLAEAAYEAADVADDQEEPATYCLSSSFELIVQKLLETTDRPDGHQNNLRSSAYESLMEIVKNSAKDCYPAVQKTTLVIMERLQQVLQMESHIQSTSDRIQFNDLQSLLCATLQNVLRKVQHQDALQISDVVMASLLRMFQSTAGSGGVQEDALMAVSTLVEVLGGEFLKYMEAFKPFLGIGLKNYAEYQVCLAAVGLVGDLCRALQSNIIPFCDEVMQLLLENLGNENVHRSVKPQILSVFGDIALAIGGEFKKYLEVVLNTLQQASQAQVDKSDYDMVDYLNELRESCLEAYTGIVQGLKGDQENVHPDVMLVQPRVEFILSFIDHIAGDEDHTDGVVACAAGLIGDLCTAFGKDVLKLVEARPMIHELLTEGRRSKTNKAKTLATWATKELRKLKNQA
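Inhibition scored from the CFP 486 nm/YFP 530 nm FRET ratio 45 min after adding 0.125 microM importin beta to 50 nM Rango biosensor preincubated 5 min with compound (room temperature, PBS with DTT, Tween-20, BSA). No-importin wells as positive control.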
miR-21 reporter = raises the signal of a miR-21 reporter; AID 2288; Potency, µM (doses to about 38.3 µM), inactives show at the highest dose reporter change, positive = more light; 340,000 tested, under 10 active; HeLa miR-21 FLuc reporter, luciferase, 48 h; active = well fitted rising curve with a large enough effect; inconclusive = small, poorly fitted or top-dose-only effect; inactive = no such curve, though single readings can be large or run the other way;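 also: % of control where 0% means no effect; miR-21 action dims this reporter so a rising signal means less miR-21 action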
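HeLa miR-21-FLuc reporter line, endogenous miR-21; 2000 cells/well in DMEM/10% FBS; compound titration up to ~40uM final, 48 h, 37 degree Celsius; luciferase detection reagent, 15 min lysis, CCD luminescence.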
* marks the source's active call; other numbers are inactive results; ? = inconclusive; / = no result given; & = joins results of further samples.

molecule	Rango release inh	GLA inh pH 4.5	Rango-impB inh	miR-21 reporter
Cc1cc(Cl)ccc1C(=O)C1CCCN(C(=O)CCn2cnnn2)C1 (stereo not drawn)	2%	6	-0.7%	-2%
O=C(NNC(=O)c1ccc(Cl)cc1Cl)c1ccncc1	1%	-1	-2.5%	-18%
CN(C)C(=O)c1nc2ccc(Cl)cn2c1CN1CCN(c2ncccn2)CC1	-11%	3	0.0%	-2%
CN(C)c1ccc(C(=O)N/N=C/c2ccccn2)cc1	-21%	/	-0.4%	-37%
COC(=O)C1=CN(Cc2cccs2)C=C(C(=O)OC)C1c1cccc(OC)c1OC	?	-1	?	-9%
OCCCn1c(C2CCCN2c2nc(-c3ccc(F)cc3)cs2)nc2cc(Cl)c(Cl)cc21 (stereo not drawn)	-7%	/	-3.6%	/
O=C(NCc1ccccn1)Nc1cccc(Cl)c1Cl	0%	/	-4.2%	-50%
CC(=O)c1ccc(C(=O)NC2CCCN(Cc3ccccc3F)C2)cc1 (stereo not drawn)	-13%	/	-2.1%	-6%
CC(=O)N1Cc2ccccc2CC1C(=O)O (stereo not drawn)	-11%	0	4.7%	5%
CC(OC(=O)Cn1cnc2c1c(=O)n(C)c(=O)n2C)C(=O)c1ccccc1 (stereo not drawn)	-8%	/	2.2%	/
O=C(O)c1ccc(OCc2occc2C(=O)O)cc1	-5%	-7	-0.6%	-6%
Cc1ccc(C)c(S(=O)(=O)N2CCN(C(=O)Cc3c(F)cccc3Cl)CC2)c1	-11%	/	1.0%	/
O=C(OCC(=O)N1CCCC1)c1cc(=O)c2ccccc2o1	-14%	/	-0.2%	/
COc1cccc(C(=O)NC2CC3CCCC(C2)N3S(=O)(=O)c2ccccc2)c1 (stereo not drawn)	-6%	3	-3.3%	23%
CCN(CC)S(=O)(=O)c1ccc(Cl)c(NC(=O)COc2ccccc2[N+](=O)[O-])c1	2%	-2	1.0%	-1%
CCN(C(=O)Cn1nc(C)n2c(cc3cc(C)ccc32)c1=O)c1ccccc1	0%	/	2.6%	-9%
Cc1cc(=O)[nH]c(N/N=C/c2ccc(-c3ccc(F)cc3)o2)n1	-11%	/	?	-25%
COCC(C)OC(=O)/C(C#N)=C\c1coc2ccc(C)cc2c1=O (stereo not drawn)	?	1	?	-14%
O=C(Nc1cc(C(F)(F)F)ccc1Cl)C(NCc1ccccc1)c1ccccc1 (stereo not drawn)	0%	-9	-0.8%	3%
COc1cc2c(C#CCCO)c(-c3ccsc3)oc(=O)c2cc1OC	-6%	/	-3.8%	/
COc1ccccc1CNC(=O)COC(=O)c1ccc(Cl)nc1	-10%	/	0.9%	/
CCOc1ccc(N=Cc2ccccc2O)cc1	-11%	/	1.4%	/
COc1ccc(CNC(=O)c2c(F)c(F)c(F)c(F)c2F)cc1	-1%	17	-0.7%	0%
O=C(COc1ccc(Cl)cc1)N1CCN(c2ncccn2)CC1	7%	4	1.0%	-6%
Cc1ccc(-c2nc3cc(N)ccc3o2)c(C)c1	?	17	?	-16%
CCSc1nc(=O)n(-c2ccccc2)c(C)c1C(C)=O	-1%	3	-6.1%	-30%
O=C(CCc1nnc2ccc(NCc3ccc(Cl)cc3)nn12)NC1CCCCC1	1%	/	-2.0%	-3%
Cc1c(C(=O)NCCc2ccccc2)oc2ccc(S(=O)(=O)N3CCC4(CC3)OCCO4)cc12	-8%	-6	1.6%	18%
CC1=CC(C)C2C(=O)N(CCC[N+](C)(C)C)C(=O)C2C1 (stereo not drawn)	?	-4	-3.0%	-8%
N#C/C(C(=O)NCc1ccccc1)=C1/SC(Cc2ccc(Cl)cc2)C(=O)N1c1ccccc1 (stereo not drawn)	0%	5	4.0%	-7%
COc1ccc(OC)c(NC(=O)Cn2c(=O)n(CC3CCCO3)c(=O)c3cc(OC)c(OC)cc32)c1 (stereo not drawn)	3%	/	-6.5%	-2%&-5%
O=C(NC1CCN(Cc2ccccc2)CC1)c1cccc(NS(=O)(=O)c2ccc(Br)cc2)c1	17%	/	0.1%	/
O=C(CSc1nc2[nH]ncc2c(=O)[nH]1)Nc1ccc(Cl)c(Cl)c1	8%	/	4.8%	/
COc1cccc(/C=C2/SC(=S)N(CCC(=O)N3CCOCC3)C2=O)c1	-27%	/	-5.5%	-1%
Cc1ccc(CSCC(N)C(=O)O)cc1 (stereo not drawn)	/	-1	/	-9%
COc1ccc(NC(=O)COCC(=O)Nc2ccc(C)cc2)cc1	3%	/	-1.1%	-5%
CN(C)C(=O)Oc1cccc([N+](C)(C)C)c1	0%&-1%	1&-9&1&2	3.5%&-1.3%	-5%&-16%
N#Cc1cnn2cc(-c3ncc(C(F)(F)F)cc3Cl)cnc12	0%	-1	0.5%	-13%
C=CCn1c(SCC(=O)NCC(=O)OCC)nnc1-c1ccccn1	7%	-12	-2.8%	-4%
CCOC(=O)c1c(NC(=O)C(F)(OC)C(F)(F)F)sc2c1CCN(C)C2 (stereo not drawn)	?	-5	?	-9%
CCc1ccccc1NS(=O)(=O)Cc1ccccc1	7%	/	-0.3%	1%
CC1CCN(C(=O)COC(=O)/C=C/c2ccc(Br)o2)CC1	-24%	/	?	/
CCc1ccc(NC(=O)c2ccc3c(c2)C(=O)N(Cc2ccco2)C3=O)cc1	-3%	8	-0.8%	-9%
CC(=O)O[C@H]1CC[C@@]2(C)C(=CC[C@H]3[C@@H]4CC[C@H](C5(C)OCCO5)[C@@]4(C)CC[C@@H]32)C1	3%	/	-2.7%	/
CCN(CC)CCCn1c(=S)[nH]c2ncccc2c1=O	-2%	7	-0.1%	-4%
Cc1ccc(S(=O)(=O)N2CCOCC2)cc1NC(=O)COC(=O)C1COc2ccccc2O1 (stereo not drawn)	-11%	-1	-3.6%	-6%
CC(C)(C)CC(C)(C)NC(=S)Nc1ccc(S(=O)(=O)N2CCOCC2)cc1	3%	-1	-4.2%	?
Cc1cc(=O)[nH]c(SCCOc2cccc(C(F)(F)F)c2)n1	18%	-6	-1.1%	-18%
O=C(Nc1ccc(Oc2cccnc2)cc1)C1CCN(Cc2ccccc2F)CC1	-6%	/	-0.3%	9%
CSc1ccc(Cl)c(C(=O)NCCOc2cc(C(C)C)ccc2C)c1	-11%	-5	0.9%	-7%
COc1cccc(OCc2cc(/C=N/NC(=O)c3ccn[nH]3)ccc2OC)c1	2%	3	0.2%	-4%
O=C(Nc1cccnc1)C1CCCN(S(=O)(=O)c2cccc3nsnc23)C1 (stereo not drawn)	-3%	-3	-0.4%	8%
Cc1ccc2c(c1)C=CC(C)N2C(=O)c1ccccc1 (stereo not drawn)	-3%	1	-0.2%	-2%
CN(C)/C=N/c1c(C#N)cnn1-c1nc2ccccc2s1	-3%	-15	0.4%	-20%
COc1cccc(/C=C/C(=O)c2cccc([N+](=O)[O-])c2)c1	5%	4	0.2%	-1%
COC(=O)c1ccc(C(NC(=O)OCc2ccccc2)/C(C)=C/[C@@H](C)C(=O)NCc2ccc(-c3ccccc3)cc2)cc1 (stereo partly drawn)	17%	-7	-1.3%	-7%
O=[N+]([O-])c1nn(-c2ccc(Cl)cc2)n(O)c1=NCc1cccnc1	-1%	-4	-0.6%	-45%
Oc1ccc(Br)cc1Cn1nnc2ccccc21	-15%	/	-1.1%	-19%
O=C(c1ccc2c(c1)OCO2)N1CCN(c2ccc(F)cc2)CC1	-2%	21	0.2%	-25%
Cc1cccc(NC(=O)Nc2cc(C)on2)c1	-10%	8	-0.1%	-29%

Random excerpt: 4 records from the list.
molecule	Rango release inh	GLA inh pH 4.5	Rango-impB inh	miR-21 reporter
Cc1ccc(S(=O)(=O)N2CCOCC2)cc1NC(=O)COC(=O)C1COc2ccccc2O1 (stereo not drawn)	-11%	-1	-3.6%	-6%
O=C(c1ccc2c(c1)OCO2)N1CCN(c2ccc(F)cc2)CC1	-2%	21	0.2%	-25%
CC(=O)O[C@H]1CC[C@@]2(C)C(=CC[C@H]3[C@@H]4CC[C@H](C5(C)OCCO5)[C@@]4(C)CC[C@@H]32)C1	3%	/	-2.7%	/
CCOc1ccc(N=Cc2ccccc2O)cc1	-11%	/	1.4%	/

The list goes on:
molecule	Rango release inh	GLA inh pH 4.5	Rango-impB inh	miR-21 reporter
COc1ccc(-n2nnnc2CNC(=O)c2ccc3c(c2)OCO3)cc1	-2%	/	1.4%	/
CSCCC(NS(=O)(=O)c1ccccc1F)C(=O)NCc1ccncc1 (stereo not drawn)	14%	/	4.8%	/
O=C1CC(/C=C/c2ccc(Cl)cc2)=Nc2ccccc2N1	0%	4	0.7%	-3%
CC(=O)N1c2ccc(S(=O)(=O)NCCC(=O)Nc3ccc(C)c(Cl)c3)cc2CC1C (stereo not drawn)	-3%	/	-7.9%	10%
COc1ccc(NS(=O)(=O)c2cccc(C(=O)N3CCN(S(=O)(=O)c4ccccc4)CC3)c2)cc1	-28%	/	2.0%	/
Cc1ccc(OCCN2CCN(C(=O)CCC(=O)Nc3nnc(C)s3)CC2)cc1	3%	-5	-1.3%	0%
CCS(=O)(=O)Nc1ccc(C(=O)NCCSc2ccccc2)cc1	7%	/	0.7%	-40%
COc1ccc2nc(C)cc(Nc3ccc(N4CCOCC4)cc3)c2c1	-23%	-13	2.0%	28%
Cc1ccccc1OCC(O)CN1CCN(CC(O)COc2ccccc2C)C(C)C1 (stereo not drawn)	-3%	/	8.8%	1%
O=C(O)C1CC(=O)N(c2ccc3c(c2)OCCO3)C1 (stereo not drawn)	3%	-2	4.8%	-3%
CCCNC(=O)c1nn2c(C(F)(F)F)cc(-c3ccccc3)nc2c1Cl	4%	/	?	0%
Cc1ccc(Cl)cc1NC(=S)N(CCN(C)C)C(C)c1ccccn1 (stereo not drawn)	7%	2	1.2%	14%
C#Cc1ccc([C@H]2C=C(C(=O)N3CCN(Cc4ccc5c(c4)OCO5)CC3)O[C@@H](OCc3ccc(CO)cc3)C2)cc1	14%	-4	-3.7%	6%
CCC(c1nnnn1Cc1ccco1)N1CCN(c2cc(Cl)ccc2C)CC1 (stereo not drawn)	16%	-1	1.4%	10%
Cn1nc(C(F)(F)F)c2cc(C(=O)Nc3ccc(F)c(Cl)c3)sc21	-19%	-25	4.6%	-1%
COCCn1c(SCC(=O)Nc2ccc(N3CCOCC3)cc2)nc2ccccc21	-12%	10	3.5%	-4%
CCOc1ccccc1CNC(=O)CCN1C(=O)COc2ccccc21	1%	1	-0.4%	0%
Cc1cccc2sc(NC(=O)C3CCCO3)nc12 (stereo not drawn)	4%	0	1.2%	-61%
COC(=O)c1ccccc1NC(=O)c1ccccc1N(C)S(C)(=O)=O	7%	-3	-2.5%	-4%
CN(CC(=O)Nc1ccc(Cl)c(C(F)(F)F)c1)C(=O)CCN1C(=O)C2CCCCC2C1=O (stereo not drawn)	6%	/	0.4%	/
CCCCc1nc2cc(C(=O)NCc3ccccn3)ccc2o1	-7%	/	-0.6%	-18%
Cc1ccc(NC(=O)COC(=O)C2CSC3(C)CCC(=O)N23)c(C)c1 (stereo not drawn)	-10%	/	0.9%	/
Cc1ccc(-n2nc3c(c2NC(=O)c2ccccc2Br)CS(=O)C3)cc1 (stereo not drawn)	-21%	5	-2.4%	-1%
CC(c1nnc(SCC(=O)N2CCc3ccccc32)n1-c1ccc(Cl)cc1)N(C)C (stereo not drawn)	-2%	2	0.0%	-2%
CCOC(=S)SCC(=O)N1CCc2ccccc2C1C1C(=O)CCCC1=O (stereo not drawn)	0%	1	-2.0%	-1%
C/C(=N/NC(=O)C1CC1(c1ccccc1)c1ccccc1)c1cccs1 (stereo not drawn)	-24%	-1	-2.7%	-2%
O=C(Cc1ccc(Cl)cc1)Nc1ccc(-c2nnc(-c3ccco3)o2)cc1	8%	4	0.0%	-31%

An excerpt, so the mix of outcomes need not match the whole.
